MT1-MMP promoter = inhibitors of MT1-MMP promoter transcription, cell-based, luciferase reporter, luminescence (AID 618); MT1-MMP promoter luciferase reporter cells, luminescence; calls from a first round at 10 µM; hits with a dose series show EC50 in µM; 87,000 compounds, 0.62% hits;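 active = over half of the reporter light lost at 10 µM or EC50 under 50 µM; inactive = the rest and hits that failed the dose series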;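 note: actives suppress MT1-MMP promoter-driven transcription so potencies describe inhibitors; HT1080 fibrosarcoma cells; overnight exposure; toxic or luciferase-blocking compounds were not removed from the actives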
Hsc70 ATP site = Hsc70 inhibitors, probe displacement, primary screen, biochemical, fluorescence polarization (AID 568). Heat shock cognate 71 kDa protein (Homo sapiens). displacement, % at 20 µM, or IC50 in µM where a hit was titrated. 83,000 tested, under 10 active. Hsc70 fluorescence polarization, probe displacement; higher % means a stronger effect; strong numbers were not always called active;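 active = displacement above 50% without optical interference and an IC50 on retest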;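 note: ATPase domain with a fluorescein-tagged ATP probe; 0% = vehicle and 100% = excess ADP; read after one hour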
WNV protease inh = inhibitors of WNV NS2B-NS3 protease, primary screen, biochemical, fluorogenic substrate; 65,000 compounds, 0.18% hits; fluorogenic substrate Ex360/Em465; active compounds read low; Genome polyprotein (West Nile virus), P06935; z-score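 (tested at a level between 10 and 100 µM)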; AID 577, 2007;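 active = z-score at -3 or under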;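 note: score is relative to mean and spread of the compound wells of a plate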
Target sequence (P06935 1371-1501 limits assumed): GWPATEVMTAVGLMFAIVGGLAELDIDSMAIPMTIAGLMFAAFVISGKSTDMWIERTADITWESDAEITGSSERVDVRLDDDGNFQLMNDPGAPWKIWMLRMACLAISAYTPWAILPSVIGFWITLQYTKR
Target sequence (P06935 1502-1679 limits assumed): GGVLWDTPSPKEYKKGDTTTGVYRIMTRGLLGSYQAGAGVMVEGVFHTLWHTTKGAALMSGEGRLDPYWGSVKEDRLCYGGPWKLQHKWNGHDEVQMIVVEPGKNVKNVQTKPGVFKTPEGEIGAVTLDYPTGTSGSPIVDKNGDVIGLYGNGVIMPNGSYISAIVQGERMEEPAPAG
* = called active by the depositor; i = inactive; x = no result given. This is a subset (hit frequency here may not be typical).

SMILES	MT1-MMP promoter	Hsc70 ATP site	WNV protease inh
CCCCOC(=O)Cn1c(=O)c2c(nc3n2CCCCN3c2ccc(C)cc2)n(C)c1=O	i	-3.9%	0.15
COc1ccc(N(CC(=O)NCc2cccs2)S(=O)(=O)c2cccnc2)cc1	i	0.2%	-0.18
CS(=O)(=O)N(CCc1ccccc1)CC(N)=O	i	6.5%	0.15
COc1ccccc1C1NC(=O)NC(C)=C1C(=O)OC1CCCCC1 (stereo unspecified)	i	-0.3%	-0.51
O=C(CCn1c(=O)sc2ccccc21)NCc1ccco1	i	3.8%	-0.62
CCOCC(=O)Nc1ccc(-c2cn3cccnc3n2)cc1	i	2.6%	2.6
Cc1sc2ncn(CC(=O)NCCN3CCOCC3)c(=O)c2c1S(=O)(=O)N1CCC(C)CC1	i	2.4%	x
CCN(CC)C(=O)N1CCN(C(=O)c2ccc(C)cn2)CC1	i	-8.2%	1.3
CCOc1ccc(Br)cc1C1C(C(=O)OC)=C(N)Oc2cc(N(C)C)ccc21 (stereo unspecified)	i	-45%	x
CC1Oc2ccccc2N(CC(=O)Nc2ccc3c(c2)OCCO3)C1=O (stereo unspecified)	i	-5.6%	0.16
COc1ccc(OC)c(NC(=O)c2ccc(S(=O)(=O)N3CCN(C)CC3)cc2)c1	i	-1.7%	-0.18
COc1ccc(-n2c(Cc3ccccc3)nnc2SCC(=O)N2CCCc3ccccc32)cc1	i	-0.8%	x

Quoted at random: 3 entries already listed.
SMILES	MT1-MMP promoter	Hsc70 ATP site	WNV protease inh
CCOCC(=O)Nc1ccc(-c2cn3cccnc3n2)cc1	i	2.6%	2.6
CCCCOC(=O)Cn1c(=O)c2c(nc3n2CCCCN3c2ccc(C)cc2)n(C)c1=O	i	-3.9%	0.15
CCN(CC)C(=O)N1CCN(C(=O)c2ccc(C)cn2)CC1	i	-8.2%	1.3

New compounds follow.
SMILES	MT1-MMP promoter	Hsc70 ATP site	WNV protease inh
CCOC(=O)c1ccccc1NC(=O)c1ccc(N(C)S(C)(=O)=O)cc1	i	-5.0%	0.47
COC(=O)c1cc(NC(=O)Cc2ccc(OC)c(OC)c2)cc(C(=O)OC)c1	i	2.5%	x
Cc1c(OCC(=O)OC(C)C)ccc2c3c(c(=O)oc12)CCC3	i	-6.6%	1.2
CCCCNc1nc2ccccc2nc1NS(=O)(=O)c1cccs1	i	-2.9%	1.3
CC1CCc2c(C(=O)Nc3nccs3)csc2C1 (stereo unspecified)	i	-1.5%	x
CCCc1ccc(OCc2nc(-c3ccc(NC(=O)c4ccco4)cc3)no2)cc1	i	-13%	-1.3
CCc1nnc(NC(=O)CSc2nnc(-c3ccc(O)cc3)n2-c2ccccc2)s1	i	-0.8%	1.5
CCN1C(=O)c2n[nH]c(C(=O)OC)c2C1=O	i	-1.0%	1.3
O=C1Nc2ccccc2C12OCCO2	i	10%	-1.3
CCc1cc(C(=O)OC)c(NC(=O)CCCC(=O)O)s1	i	-1.2%	1.1
CCCCn1c(-c2ccc(Cl)cc2)nc2c(=O)n(C)c(=O)[nH]c21	i	8.5%	-1.2
C/C(=N\O)c1ccc(N2C(=O)C3CC=C(Cl)CC3C2=O)cc1 (stereo unspecified)	i	0.8%	-0.25
COc1ccc(S(=O)(=O)N2CCC(O)(c3ccc(Cl)cc3)CC2)cc1	i	1.7%	-0.18
O=C(Cn1nc(-c2cccc([N+](=O)[O-])c2)c2ccccc2c1=O)Nc1cccnc1	i	-1.8%	x
O=C(CCCOc1ccccc1)N1CCN(C(=O)c2ccco2)CC1	i	0.2%	-0.77
C/C(N)=C(/C#N)C(=O)CN1CCCCC1	i	2.8%	1.1
Cc1ccc(CS(=O)(=O)CCC(=O)NC2CC2)cc1	i	1.7%	x
Cc1cccc(NC(=O)C2CC(O)CN2C(=O)OCc2ccccc2)c1 (stereo unspecified)	i	2.2%	1.6
CCCSc1nc2c(c(=O)n(C)c(=O)n2C)n1Cc1ccc(C)cc1	i	-10%	0.4
CC(=O)C1=C(O)C(=O)N(c2cc(C(C)(C)C)on2)C1c1ccc(C(C)C)cc1 (stereo unspecified)	i	1.0%	0.11
Cc1cc(C(=O)Nc2nnc(-c3ccccc3)s2)no1	i	4.6%	1.4
CCCC(=O)Nc1cccc(-c2nc3ccccc3o2)c1	i	3.7%	-0.58
COc1ccc(-c2noc(-c3ccccc3C(=O)Nc3cccnc3)n2)cc1OC	i	4.5%	0.0014
CCOC(=O)c1nnn(-c2ccccc2)c1C	i	-3.1%	x
CCn1c(SCC(=O)C(C)(C)C)nnc1-c1ccccn1	i	5.1%	0.24
Cn1cccc1Cc1nnc(SCC(=O)N2CCc3ccccc32)n1CCc1ccccc1	i	2.0%	0.78
Cn1c(=O)oc2cc(S(=O)(=O)N3CCCC(C(=O)N4CC=C(c5ccccc5)CC4)C3)ccc21 (stereo unspecified)	i	1.9%	-0.64
COc1cc(S(=O)(=O)N2CCCCC2)ccc1NC(=O)c1ccccc1Cl	i	-1.3%	x
COc1cccc(CNS(=O)(=O)c2cn(C)cn2)c1	i	6.8%	-0.51
Cc1cc(N2CCN(c3ccccc3)CC2)nc(N)n1	i	-3.2%	x
COC(=O)Nc1nnc(Cc2ccc(Cl)cc2)s1	i	1.8%	x
CSC1=NCCN1C(=O)c1cccc(C(F)(F)F)c1	i	1.7%	-2.2
O=C(CN1C(=O)NC2(CCc3ccccc32)C1=O)Nc1cc(C(F)(F)F)ccc1N1CCOCC1 (stereo unspecified)	i	16%	0.95
CCOC(=O)COc1ccc2c(c1)c(C(=O)OCC)c(C)n2CC	i	0.5%	-0.65
COc1ccc(C(=O)CSc2nncn2C)cc1	i	3.5%	x
COc1ccccc1OCC(=O)Nc1ccccc1C(=O)NCc1ccco1	i	0.7%	x
N#Cc1nc(COc2ccccc2)oc1N1CCCC1	i	2.6%	0.29
CCC(=O)NC1(C(F)(F)F)C(=O)Nc2c1c(=O)n(C)c(=O)n2C (stereo unspecified)	i	0.0%	1.5
COCCn1cc(C(=O)c2ccccc2OCC(=O)Nc2cc(C)on2)cc(C#N)c1=O	i	6.5%	-0.2
CNCc1ccc(OCc2ccccc2)c(OC)c1	i	-5.3%	1.3
CC1=C(C(=O)OC(C)C)C(c2ccc(N(C)C)cc2)C2=C(CC(C)(C)CC2=O)N1 (stereo unspecified)	i	-6.8%	1.5
CCOc1cc(-c2cc(-c3ccc(OC)cc3)nc(N)c2C#N)ccc1O	i	-7.2%	x
N#Cc1c(-c2ccccc2)nc(SCc2nc(N)nc(N3CCCCC3)n2)[nH]c1=O	i	-10%	-0.25
CCCS(=O)(=O)N1CCN(C(=O)c2cccnc2)CC1	i	-3.5%	-0.36
CC(C)(C)C(=O)Nc1nc(=S)ss1	i	-0.3%	x
O=c1nc(N2CCCC2)nc(Nc2ccccc2)[nH]1	i	-1.3%	0.71
O=c1cnn(-c2ccc(Cl)cc2Cl)c(-c2ccccc2)c1	i	-1.5%	x
O=C(Nc1ccc(-c2nc3ccccc3o2)cc1)c1ccc(N2C(=O)C3C4C=CC(C4)C3C2=O)cc1 (stereo unspecified)	i	4.5%	x
Cc1cc(-n2c(C)cc(C(=O)COc3ccc4ccc(=O)oc4c3)c2C)no1	i	-9.1%	-0.16
OCC1OC(n2nc3ccccc3n2)C(O)C(O)C1O (stereo unspecified)	i	-0.2%	0.73
Cc1cccc2c1nc(-c1ccccc1)n1cnnc21	i	-2.7%	0.43
CCCC1(C(=O)OCC)NC(c2ccc(OC)cc2OC)C2C(=O)N(c3ccccc3)C(=O)C21 (stereo unspecified)	i	1.7%	x
COc1ccc(-n2nnc3c(SCC(=O)c4ccccc4)ncnc32)cc1	i	-0.7%	-0.4
N#Cc1c(N)n[nH]c1-c1cc2c([nH]1)CCCC2	i	-5.1%	0.81
c1ccc(-c2nc3c(ccc4ccccc43)[nH]2)nc1	i	-9.3%	x
O=[N+]([O-])c1ccc(/C=N/Nc2nc(N3CCCCC3)nc(N3CCCCC3)n2)o1	i	-1.5%	x
O=C(C1CCCN(S(=O)(=O)c2cccc3nsnc23)C1)N1CC=C(c2ccccc2)CC1 (stereo unspecified)	i	-11%	-1.1
CC(C)OC(=O)CSc1ncnc2c1cnn2-c1ccccc1	i	-0.4%	1.2
CCN(CC)c1ccc(NC(=O)CN2CCN(c3ccc(F)cc3)CC2)cc1	i	-0.1%	-1.6
Cc1cc(Cl)cc(C)c1OCCCCN1CCOCC1	i	-6.8%	1.1
(more compounds)
SMILES	MT1-MMP promoter	Hsc70 ATP site	WNV protease inh
O=C(CSc1ncc(-c2ccc(F)cc2)n1Cc1ccco1)Nc1nccs1	i	-2.2%	0.41
CCN(CCCNC(=O)CNC(=O)Cn1cnc2ccccc2c1=O)c1cccc(C)c1	i	-5.0%	-0.26
CCN(CC)CCCNC(=O)c1cc(-c2ccc(Cl)c(Cl)c2)on1	i	-1.6%	0.92
CC1(C)CC2CC(C)(CN2C(=O)COC(=O)c2ccc(Cl)c(N)c2)C1 (stereo unspecified)	i	-2.4%	x
Cc1cc(C)cc(N(C(C)C(=O)NC2CCCC2)S(C)(=O)=O)c1 (stereo unspecified)	i	1.3%	x
CN(C(=O)CSc1nnc(NC2CCCCC2)s1)C1CCS(=O)(=O)C1 (stereo unspecified)	i	6.5%	-0.48
CC(C)NC(=O)NC(=O)COC(=O)Cc1ccsc1	i	-0.2%	x
CCOC(=O)C1CCN(C(=O)CSc2ccccc2)CC1	i	-2.4%	1.3
COc1ccc(-c2cc3nc(-c4ccccc4)cc(N4CCC5(CC4)OCCO5)n3n2)cc1	i	-4.2%	-1.1
Cc1cccc(C(=O)Nc2sc3c(c2C#N)CCCCC3)c1	i	-3.2%	x
CCCCCOC(=O)C1=C(C)NC(=O)NC1c1ccccc1OCC (stereo unspecified)	i	-9.7%	0.54
O=P(c1ccc2c(c1)OCCO2)(N1CCOCC1)N1CCOCC1	i	-5.6%	1.3
Cc1ccccc1NC(=S)N(CCN(C)C)C(C)c1ccccn1 (stereo unspecified)	i	1.1%	x
Cc1cccc(N2C(=O)CC(N3CCN(Cc4ccc(Cl)cc4)CC3)C2=O)c1 (stereo unspecified)	i	-1.8%	1.1
O=S(=O)(NC1CCN(Cc2ccccc2)CC1)c1cccc(S(=O)(=O)N2CCOCC2)c1	i	17%	-0.9
CC1=C(C)C(=O)C(CCCCC#CCCCC#CCO)=C(C)C1=O	i	-2.8%	0.4
Cc1cc(N2C(=O)C3CC=CCC3C2=O)no1 (stereo unspecified)	i	4.0%	x
Cc1cc2cc(CN(CCCO)S(=O)(=O)c3cccc4nsnc34)c(=O)[nH]c2cc1C	i	3.1%	-0.64
O=C(NCc1cccnc1)c1cccc2c1C(=O)N(C1CCCCC1)C2	i	5.5%	-0.69
CN(CC(=O)NCc1ccccn1)S(=O)(=O)c1ccc(Cl)cc1	i	-3.3%	-0.17
C=CCn1c(SCC2=C(C(=O)OCC)C(C)NC(=O)N2)nnc1C1CCCCC1 (stereo unspecified)	i	-4.5%	-0.55
COc1nc(N(c2ccccc2)c2ccccc2)nc(-n2ccnc2)n1	i	-3.0%	0.68
CCOC(=O)c1nnc2cc(-c3ccccc3)nn2c1C	i	0.2%	-0.88
CCOC(=O)N1CCN(S(=O)(=O)c2cc(Br)cc3c2N(C(C)=O)C(C)C3)CC1 (stereo unspecified)	i	-0.7%	0.18
COc1ccccc1-n1c(SCC(=O)NC(C)(C)C)nc(O)cc1=O	i	-2.7%	-0.29
O=C(CN(Cc1ccco1)C(=O)CNS(=O)(=O)c1ccccc1)NCc1ccccc1	i	5.2%	-1.2
N#Cc1nc(COc2ccc(Cl)cc2)oc1NCc1ccc2c(c1)OCO2	i	3.8%	-1.7
CC1=C(C(N)=O)C(c2ccco2)C(C(N)=O)=C(C)N1	i	-2.8%	0.33
CC(C)CN(C(=O)COC(=O)Cn1cnc2ccccc2c1=O)C1CCS(=O)(=O)C1 (stereo unspecified)	i	0.6%	-0.54
Clc1ccc(Cl)c(-c2ccc(/C=N/c3ncn[nH]3)o2)c1	i	-21%	0.3
Cc1ccc(CCC2C3=C(CCCC3=O)OC3=C2C(=O)CCC3)cc1	i	-4.2%	x
CC(=O)NC(Cc1c[nH]c2ccccc12)C(=O)OCC(=O)Nc1cc(C)on1 (stereo unspecified)	i	-0.1%	1.3
CCn1c(COc2cccc3ccccc23)nnc1SCC(N)=O	i	5.4%	0.21
O=C(O)CCCCCNS(=O)(=O)c1ccc(Cl)cc1	i	0.5%	-2.6

Reformatted: four of the compounds above
CCC(=O)NC1(C(F)(F)F)C(=O)Nc2c1c(=O)n(C)c(=O)n2C (stereo unspecified)
  MT1-MMP promoter = i | Hsc70 ATP site = 0.0% | WNV protease inh = 1.5

COCCn1cc(C(=O)c2ccccc2OCC(=O)Nc2cc(C)on2)cc(C#N)c1=O
  MT1-MMP promoter = i | Hsc70 ATP site = 6.5% | WNV protease inh = -0.2

CNCc1ccc(OCc2ccccc2)c(OC)c1
  MT1-MMP promoter = i | Hsc70 ATP site = -5.3% | WNV protease inh = 1.3

CC1=C(C(=O)OC(C)C)C(c2ccc(N(C)C)cc2)C2=C(CC(C)(C)CC2=O)N1 (stereo unspecified)
  MT1-MMP promoter = i | Hsc70 ATP site = -6.8% | WNV protease inh = 1.5

Bioassay records: PubChem BioAssay, several laboratories
